# Compound activity: PubChem BioAssay, several laboratories
# INS promoter inh: TRM-6 insulin promoter activity inhibition. 130,000 tested, 0.9% active. TRM-6 cells (human fetal islet line), insulin promoter-eGFP reporter, imaging; reporter expression induced with tamoxifen. inhibition, % at 2 µM. AID 1273;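 active = inhibition above the mean plus 3 SD, with well images judged a real hit on visual review, cut at about 60% in these data, passing the limit was not always enough; inconclusive = inhibition over the cutoff but images rejected on review; inactive = inhibition not above the cutoff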
# PKD1 kinase inh: inhibitors of human PKD1 kinase. inhibition, %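 (about 10 µM by stock and volumes)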. AID 797. 200,000 tested, 0.056% active. Q15139. PKD1 kinase fluorescence polarization assay;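 active = inhibition of 50% or more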;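 also: controls were vehicle for no effect and a reference inhibitor for full effect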
# Target sequence (Q15139 whole entry, looked up): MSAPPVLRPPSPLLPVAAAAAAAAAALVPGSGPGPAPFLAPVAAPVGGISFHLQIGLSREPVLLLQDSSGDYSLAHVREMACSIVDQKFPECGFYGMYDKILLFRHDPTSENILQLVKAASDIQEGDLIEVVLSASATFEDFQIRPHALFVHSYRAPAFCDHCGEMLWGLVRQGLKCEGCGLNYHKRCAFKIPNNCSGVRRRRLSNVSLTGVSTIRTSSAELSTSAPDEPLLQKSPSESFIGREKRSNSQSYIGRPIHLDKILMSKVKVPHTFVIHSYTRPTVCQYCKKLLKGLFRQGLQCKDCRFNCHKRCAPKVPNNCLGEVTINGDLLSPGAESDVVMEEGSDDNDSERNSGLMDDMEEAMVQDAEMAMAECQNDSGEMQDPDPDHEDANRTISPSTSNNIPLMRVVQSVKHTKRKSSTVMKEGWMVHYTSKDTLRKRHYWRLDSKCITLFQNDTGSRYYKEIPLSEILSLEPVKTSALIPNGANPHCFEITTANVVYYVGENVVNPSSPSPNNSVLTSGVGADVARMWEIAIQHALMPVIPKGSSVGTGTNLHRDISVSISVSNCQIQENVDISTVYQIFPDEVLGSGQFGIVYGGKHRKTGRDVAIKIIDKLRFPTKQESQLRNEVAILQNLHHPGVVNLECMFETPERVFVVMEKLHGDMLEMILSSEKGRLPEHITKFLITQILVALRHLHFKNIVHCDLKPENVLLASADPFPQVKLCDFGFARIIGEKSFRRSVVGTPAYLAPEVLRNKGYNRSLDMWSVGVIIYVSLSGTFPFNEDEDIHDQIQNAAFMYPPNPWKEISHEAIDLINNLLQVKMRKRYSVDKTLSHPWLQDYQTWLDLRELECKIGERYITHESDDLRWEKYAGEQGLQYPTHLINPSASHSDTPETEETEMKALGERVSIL
# RGS16-Gao HTS: regulators of human RGS16-Galphao interaction; bead-based flow cytometry RGS16-Galphao binding, fluorescence; actives lie on both sides; binding response (% of control), % at 10 µM; 220,000 tested, 0.38% active; AID 1441;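 active = below 25% or above 175%, edge rows of some plates excepted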;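 also: Galphao activated by GDP with aluminum fluoride before binding; 100% = wells without compound and 0% = beads without RGS; some results beyond the cut were filed as inactive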
# GALR2 agonist: agonists of human galanin receptor 2 (GALR2); O43603; GALR2-expressing cells, agonist activation read-out; activation, %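 (tested at 5 µM)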; 140,000 tested, 0.48% active; AID 803;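 active = above mean plus 3 SD of all compounds, about 5% in these data, not always enough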;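 also: 0% = vehicle buffer wells and 100% = reference agonist at full effect; tested in CHO reporter cells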
# HSV augment: HSV replication enhancement. maximum fold increase. 220,000 tested, 0.005% active. HSV replication augmentation in cells, fold increase;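 active = peak rise of 1.5-fold or more in the series; inconclusive = self-fluorescent or not available for retest; tested in PC3 cells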;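 also: first round at 10 µM; read as green reporter fluorescence; hits show the peak of a series up to 25 µM; 1 = signal of infected wells without compound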
# INS promoter inh cell count: further read-out of INS promoter inh, marked with its call; normalized cell count, %; measured here: cell count, toxicity; reference of the scale not given here;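 cells exposed to compound for 48 h; stained nuclei by imaging scaled within each plate; lower means fewer cells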
# HSV augment primary fold: further read-out of HSV augment, marked with its call; fold increase; compound at 10 µM; measured here: primary screen fold increase 10 uM; tested in PC3 cells;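 GFP signal in the first replicate; 1 = infected wells without compound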
# * hit, by the source's call; i = inactive; ? = inconclusive; nt = no result given.
# Second line of a record – INS promoter inh, INS promoter inh cell count, PKD1 kinase inh, RGS16-Gao HTS, GALR2 agonist, HSV augment, HSV augment primary fold
Cc1cc(C(=O)Nc2ccccn2)cs1
→ 40, 105, -10, 101, -1.0, i, 1
O=c1c2nnn(-c3cccc(F)c3)c2ncn1Cc1ccccn1
→ nt, nt, -3, 103, nt, i, 1.1
CN(C)/N=C/C=C1\CC/C(=C\c2ccc(Br)cc2)C1=O
→ 4, 132, -1, 96, -3.0, nt, nt
O=C(O)CCC(=O)NCc1ccc2[nH]c3c(c2c1)CCCC3
→ nt, nt, -6, 74, -0.6, i, 1.1
CCOC(=O)c1c(NC(=O)CSc2ncccn2)sc2c1CCN(Cc1ccccc1)C2
→ -39, 17, 12, 166, 0.4, i, 0.75
COc1cc(CNc2ccc(N3CCN(C(C)=O)CC3)cc2)ccc1OCc1ccc(F)cc1
→ nt, nt, -4, 102, nt, i, 0.92
O=C(N/N=C/c1cc([N+](=O)[O-])ccc1O)C12CC3CC(CC(C3)C1)C2
→ 0, 148, -7, 82, nt, i, 1.6
CSc1ccc(-c2c(C#N)c(N)nc3c2CCCC3)cc1
→ 36, 123, -6, 103, -1.8, i, 0.88
Nn1cnnc1N/N=C\c1ccc(-c2ccccc2[N+](=O)[O-])o1
→ -50, 127, 12, 101, -1.2, i, 0.74
Cc1oc(C(C)(C)C)cc1C(=O)N1CCN(c2ccc(C(F)(F)F)cn2)CC1
→ nt, nt, nt, 110, nt, i, 0.95
CC1=C(C(N)=O)C(c2ccccc2)n2nc(-c3cccs3)nc2N1 (stereo unspecified)
→ nt, nt, 6, 106, -1.2, i, 1.2
CCCCNC(=O)CCSc1nc2nc(C)cc(C)n2n1
→ nt, nt, -1, 97, -0.4, i, 0.99
O=C(O)c1ccc2c3c(cccc13)C(=O)N(c1cccc3ccccc13)C2=O
→ nt, nt, -7, 102, nt, i, 1
CC(=O)Nc1nnc(SCC(=O)N2CCN(Cc3ccccc3)CC2)s1
→ 26, 141, 2, 111, -0.5, i, 0.95
CCOc1cc(CNc2ccc(Br)cc2)cc(Br)c1OCC(=O)NC(C)(C)C
→ 3, 95, 5, 103, -1.7, i, 1
CS(=O)(=O)N(CC(=O)N1CCCC1)c1cccc(Cl)c1Cl
→ -29, 88, -2, 93, -1.0, i, 1
O=C(/C=C/c1ccco1)c1ccccc1O
→ -24, 94, 0, 96, nt, i, 0.73
Cc1ccc(SCCNC(=O)/C=C/c2cccc([N+](=O)[O-])c2)cc1
→ 19, 81, -9, 108, -3.1, i, 0.9
Cc1ccc(C2OCC3(CO2)COC(c2ccc(C)cc2)OC3)cc1 (stereo unspecified)
→ -12, 114, 5, 101, -1.3, i, 1
Cc1ccc(C(=O)N/C(=C\c2ccc(-c3ccc([N+](=O)[O-])cc3)o2)C(=O)NC2CCS(=O)(=O)C2)cc1 (stereo unspecified)
→ nt, nt, -9, 105, -0.2, ?, nt
Cc1ccc2nc(Cl)c3cc(C(=O)N(CCN(C)C)Cc4ccco4)sc3c2c1
→ -46, 64, -4, 97, nt, i, 0.82
Cc1occc1-c1nnc(SCC(=O)Nc2ccccn2)o1
→ 40, 51, -4, 104, nt, i, 0.84
c1ccc(N2CCN(c3ccccc3)C2c2ccncc2)cc1
→ 14, 120, -7, 99, -3.3, i, 1.1
COc1ccc(-n2c(SCC(=O)N/N=C/c3ccccc3OCC(=O)O)nc3ccccc3c2=O)cc1
→ nt, nt, nt, 94, nt, i, 0.93
CC(C)c1ccc(NC(=O)CSc2nc3c(c(=O)[nH]2)CCC3)cc1
→ 35, 111, -4, 113, 0.0, i, 0.94
CCn1c(N2CCN(C(=S)Nc3ccc(OC)cc3)CC2)nc2ccccc21
→ nt, nt, -5, 98, nt, i, 0.86
CCC(Sc1nc(-c2cccc(OC)c2)c(C#N)c(=O)[nH]1)C(=O)Nc1nnc(C(C)C)s1 (stereo unspecified)
→ 18, 113, -13, 96, nt, i, 1.1
O=C1CN(C(=O)COc2ccc(F)cc2Br)c2ccccc2N1
→ -45, 111, -2, 99, nt, i, 1.1
Cc1c(NC(=O)c2cccc(F)c2)c(=O)n(-c2ccccc2)n1C
→ -219, 104, -2, 125, -1.7, i, 1
COc1cc(NC(=S)NCCN2CCOCC2)cc(OC)c1OC
→ nt, nt, -2, 103, nt, i, 1.1
COc1ccc(N2C(=O)C3CCCN3C2c2ccccc2)cc1 (stereo unspecified)
→ nt, nt, -6, 98, -2.0, i, 1.3
Cn1nc(OC(=O)Nc2cccc(Cl)c2)cc1C(F)(F)F
→ -35, 32, 3, 98, -3.8, i, 0.9
S=C(NCCc1ccccc1)N/N=C/c1cccc(Cl)c1Cl
→ nt, nt, -3, 101, -0.6, i, 0.9
O=C(Nc1ccc2nc(-c3cccnc3)[nH]c2c1)c1ccco1
→ nt, nt, 2, 110, -1.4, i, 0.91
C#CC(CC)(CC)NC(=O)/C=C/C(=O)O
→ nt, nt, nt, 100, nt, i, 1
[O-]c1c[n+](-c2ccccc2)no1
→ nt, nt, nt, 101, nt, i, 1.1
C/C(=N\NC(=O)Cn1ccc(C(F)(F)F)n1)c1ccco1
→ 50, 161, 3, 103, nt, i, 0.9
c1coc(CNCc2cccs2)c1
→ 47, 103, -9, 83, -3.6, i, 1.1
Cc1ccc(CC(=O)Nc2ccc(OC(F)F)c(Cl)c2)cc1C
→ -16, 79, 0, 97, -1.5, i, 0.97
Cc1cccc(Nc2nc(NCC3CCCO3)nc(N)c2[N+](=O)[O-])c1 (stereo unspecified)
→ nt, nt, 9, 103, 3.0, i, 0.85
Cc1c(C)n(O)c2ccc3nonc3c12
→ nt, nt, nt, 97, nt, i, 1.3
N#C/C(=C/c1ccco1)c1nc2ccccc2s1
→ -7, 93, -13, 130, -0.8, ?, nt
O=c1cc(CN2CCN(Cc3ccccc3)CC2)c2cc3c(cc2o1)CCC3
→ nt, nt, nt, 104, nt, i, 0.97
Cc1ccc(Cc2c[nH]c(=S)s2)cc1
→ -46, 68, 2, 101, nt, i, 0.99
CSc1nc(-c2ccco2)nn1S(C)(=O)=O
→ 45, 71, -6, 99, -1.8, i, 0.9
CCOC(=O)N1CCC(n2c(SCC(=O)NCCC3=CCCCC3)nc3ccccc3c2=O)CC1
→ nt, nt, -4, 97, -2.5, i, 0.62
CCn1ncc(C2=NOC(C(=O)Nc3ccc(C)cc3)C2)c1C (stereo unspecified)
→ 25, 222, -10, 97, -5.1, i, 1.1
O=C(N/N=C/c1cc2c(cc1Br)OCO2)c1cccnc1
→ -24, 85, 2, 106, nt, i, 1.1
Cc1cccc(-n2c(O)c(C=NC3CCS(=O)(=O)C3)c3ccccc3c2=O)c1 (stereo unspecified)
→ 21, 97, -3, 97, -0.9, i, 0.88
NC(=O)COc1ccc(/C=N/NC(=O)C2CCCN2S(=O)(=O)c2ccc(Cl)cc2)cc1 (stereo unspecified)
→ 7, 93, -5, 104, -0.8, i, 1.1
CCCCn1c(-c2ccc([N+](=O)[O-])cc2)n[nH]c1=S
→ 7, 61, 2, 97, -2.2, i, 0.92
Clc1cccc(C2CCN(Cc3nc(COc4ccccc4)no3)C2)c1 (stereo unspecified)
→ nt, nt, -2, 101, nt, i, 1
Cc1ccc(C(=O)COC(=O)c2cnccn2)cc1C
→ -57, 41, 8, 96, nt, i, 0.95
Oc1ccc2ccccc2c1CNn1cnnc1
→ nt, nt, -3, 102, -0.9, i, 1
COc1ccccc1NC(=S)NNC(=O)c1ccncc1
→ nt, nt, -6, 94, nt, i, 0.91
O=C(NN1C(=O)C2C3C=CC(C4CC34)C2C1=O)c1cccc(Br)c1 (stereo unspecified)
→ nt, nt, nt, 100, nt, i, 1.1
COc1ccccc1NC(=O)C1(c2ccccc2)CCCC1
→ nt, nt, -5, 114, nt, i, 0.97
CCCCn1cc2c(c1-c1cccc(C)c1)c(=O)n(C)c(=O)n2C
→ nt, nt, nt, 99, nt, i, 0.89
O=C(CSc1ncnc2ccccc12)c1cccs1
→ 55, 116, -5, 102, nt, i, 0.97
Cc1ccc(NC(=O)COC(=O)/C(=C/c2cccs2)c2cccs2)cc1S(=O)(=O)N(C)C
→ -23, 110, 0, 102, -1.6, i, 0.79

# Carrying on.
# Second line of a record – INS promoter inh, INS promoter inh cell count, PKD1 kinase inh, RGS16-Gao HTS, GALR2 agonist, HSV augment, HSV augment primary fold
CCn1c(SCC(=O)NCC(=O)Nc2ccc(F)cc2)nnc1-c1cccs1
→ nt, nt, -2, 108, -1.2, i, 0.96
O=C(Nc1nc2c(s1)CCCC2)c1nn(Cc2ccccc2)c(=O)c2ccccc12
→ 3, 104, -6, 103, -1.7, i, 0.97
O=C(CNC(=O)c1ccc2c(c1)OCCO2)N/N=C/c1ccco1
→ nt, nt, nt, 106, nt, i, 1
COc1ccc(OC)c(NC2c3ncccc3C(=O)N2Cc2ccco2)c1 (stereo unspecified)
→ 21, 132, 5, 92, -3.0, i, 0.91
C=CCn1c(N)cc(=O)nc1SCC(=O)N(c1ccccc1)c1ccccc1
→ -68, 46, 9, 100, nt, i, 1
CCS(=O)(=O)NCc1cn2c(C)csc2n1
→ nt, nt, 2, 103, -0.6, i, 0.95
COC(=O)COC(=O)c1ccc(-n2nnnc2SC)cc1
→ 0, 104, -2, 101, -1.8, i, 0.89
CCN(CC)CCNC(=O)NC1CCCCC1
→ -9, 83, 3, 103, -1.1, i, 0.84
CC(C)c1onc(C(=O)NC2CCCCC2)c1[N+](=O)[O-]
→ nt, nt, -2, 106, nt, i, 1
O=C(CCn1c(=O)c2sccc2n(CC(=O)NCc2ccco2)c1=O)NCc1ccccc1
→ 6, 44, -3, 103, -1.4, i, 0.91
CSc1ccccc1NC(=O)CNCCCN1CCOCC1
→ nt, nt, nt, 102, nt, i, 1.2
COc1cc(OC)c2ccc(=O)oc2c1C(CCN1CCN(c2ccccc2)CC1)c1ccc(N(C)C)cc1 (stereo unspecified)
→ nt, nt, nt, 100, nt, i, 0.92
CCOC(=O)c1[nH]c(Cc2[nH]c(C(=O)OCC)c(C)c2CCC(=O)OC)c(CCC(=O)OC)c1C
→ nt, nt, -20, 100, 0.0, i, 0.76
COc1ccc(N2CCN(C(=O)COc3ncnc4ccccc34)CC2)cc1
→ nt, nt, -4, 101, nt, i, 0.91
CC12COC3(C(=O)Nc4ccc(Cl)cn4)CC1CCC32C (stereo unspecified)
→ 9, 74, -6, 104, -1.2, i, 0.79
CN(C(=O)c1ccccn1)c1nnc(-c2cnccn2)s1
→ 29, 122, -8, 104, -1.7, i, 0.97
Cc1cc(C)cc(N(CC(=O)N2CCN(c3ccccc3)CC2)S(=O)(=O)c2c(C)noc2C)c1
→ nt, nt, -3, 102, -2.1, i, 1.1
CSc1nc(C)cc(OCCO)n1
→ nt, nt, 0, 103, -1.5, i, 1
CN1CCN(NC(=O)c2cccc(C(F)(F)F)c2)CC1
→ nt, nt, nt, 105, nt, i, 0.86
COc1cccc(C(=O)NC2CCSC2=O)c1 (stereo unspecified)
→ nt, nt, -4, 101, 0.1, i, 0.92
O=S(=O)(c1ccccc1)N1CCN=C1SCc1ccccc1
→ 0, 133, 8, 109, nt, i, 0.96
Cc1ccc2nc(-c3ccc(NC(=O)C4CCCO4)cc3)[nH]c2c1 (stereo unspecified)
→ 3, 88, -4, 101, -1.4, i, 0.92
O=C(/C=C/c1ccc(Cl)cc1)Nc1ccc(CN2CCOCC2)cc1
→ nt, nt, -2, 113, -0.1, i, 1
COc1ccc(-n2ccnc2)cc1
→ nt, nt, -3, 101, nt, i, 0.95
S=c1[nH]nc(C2CCCCC2)o1
→ 64, 122, 3, 102, nt, i, 1.1
Cc1cccn2c1nc(=S)n2C(=O)c1ccco1
→ -57, 107, -11, 101, -0.4, i, 0.91
COc1ccc(S(=O)(=O)Nc2ccc(N3CCOCC3)cc2)cc1[N+](=O)[O-]
→ 44, 80, -98, 98, nt, i, 1.2
CC(C)(C)c1ccc(S(=O)(=O)N2C=CC(C(F)(F)F)=NCC2)cc1
→ -36, 120, 4, 88, -0.9, i, 1
COc1cc(C=O)ccc1OC(=O)c1ccc(C(C)C)cc1
→ nt, nt, 5, 99, nt, i, 1.1
Cc1sc(NC(=O)CN(Cc2ccc(F)cc2)C(=O)C(C)(C)C)c(C(N)=O)c1C
→ nt, nt, -9, 100, -1.1, i, 0.93
O=C(Cn1c(=O)sc2ccccc21)Nc1ccccc1C(=O)O
→ 36, 146, -10, 79, -1.6, nt, nt
Cc1ccc(S(=O)(=O)NN2Cc3ccccc3C2=N)cc1
→ -20, 121, -1, 105, nt, i, 0.94
Cc1ccnc(Sc2nc3c(c(=O)[nH]c(=O)n3C)n2CCCc2ccccc2)n1
→ nt, nt, 4, 104, -0.8, i, 0.95
COC(=O)c1ccc(N=NN2CCCCCC2)cc1
→ nt, nt, 13, 94, 0.3, i, 1.1

# Rows are unselected; 1.3% or so of the library scored in one or more.
